Beta2AR agonist: beta2AR agonists driving receptor internalization, primary screen, cell-based, FAP fluorogen, flow cytometry. Am2.2-beta2AR cells; reference of the scale not given here. Beta-2 adrenergic receptor (Homo sapiens), P07550. response, % (test concentration not listed). 340,000 tested, 0.43% active;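 active means response above a set limit, near 3 SD of response in nonfluorescent compounds, cut at about 42% in these data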;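 further: stock transfer was 100 nL into about 11 µL; a reference agonist was the positive control; negative values mostly stem from fluorescent compounds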
Target sequence (P07550 whole entry, looked up): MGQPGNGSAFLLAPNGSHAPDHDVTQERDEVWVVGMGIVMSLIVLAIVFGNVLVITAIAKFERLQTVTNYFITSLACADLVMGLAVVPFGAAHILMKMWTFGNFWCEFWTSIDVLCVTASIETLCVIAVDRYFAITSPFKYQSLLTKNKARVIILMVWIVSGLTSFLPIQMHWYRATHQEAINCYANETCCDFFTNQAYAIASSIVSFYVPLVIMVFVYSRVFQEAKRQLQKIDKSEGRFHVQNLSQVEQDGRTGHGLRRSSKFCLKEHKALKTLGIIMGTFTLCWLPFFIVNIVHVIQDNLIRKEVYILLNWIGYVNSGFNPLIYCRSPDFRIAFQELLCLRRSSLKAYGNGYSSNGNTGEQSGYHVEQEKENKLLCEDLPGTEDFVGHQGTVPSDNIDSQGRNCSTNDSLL
Beta cell apopt: inhibitors of cytokine-induced beta cell apoptosis, primary screen, luminescence. INS-1E cytokine-induced death, ATP luminescence, 48 h; percent of positive-control rescue, neutral wells zero. protection from apoptosis, % (no concentration beside the values). 300,000 tested, 0.8% active. AID 435005, 2010;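 active means all replicates at 75% or more, or half of them and the mean; inconclusive means half reach 75% but not the mean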;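 further: 0% = cytokine-treated negative control wells and 100% = positive control rescue; higher means more ATP so stronger rescue from cytokine killing; wells of about 40 µL received 100 nL stock; the first replicate is given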
A1 inh: caspase 3/7 activation in MEF A1-2A-BIM cells, primary screen, A1 inhibitor project, cell-based, luminescence, HTS; Caspase-Glo 3/7 luminescence, 3 h; percent of clofoctol response, vehicle zero; caspase activation, % (concentration not given with the values); 330,000 tested, 0.066% active;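 active means over half of replicate activation scores above 10%, or exactly half above 10 with the replicate mean above 10; inconclusive means replicate mean below 10 yet half the replicates above 10; inactive means over half of replicates below 10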;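 further: wells of about 30 µL received 50 nL stock; many hits fall short of the cut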
UCH37 DUB inh: inhibitors of human UCH37 deubiquitinase, primary screen, biochemical, Ub-AMC cleavage, fluorescence | 330,000 tested, 0.33% active | inhibition, % (no concentration beside the values) | purified proteasome/UCH37;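 active means mean of two replicates above 20%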;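 further: 0% = compound-free wells with enzyme and 100% = wells lacking proteasome; stock transfer was 100 nL into about 20 µL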
Target sequence (Q9Y5K5 whole entry, looked up): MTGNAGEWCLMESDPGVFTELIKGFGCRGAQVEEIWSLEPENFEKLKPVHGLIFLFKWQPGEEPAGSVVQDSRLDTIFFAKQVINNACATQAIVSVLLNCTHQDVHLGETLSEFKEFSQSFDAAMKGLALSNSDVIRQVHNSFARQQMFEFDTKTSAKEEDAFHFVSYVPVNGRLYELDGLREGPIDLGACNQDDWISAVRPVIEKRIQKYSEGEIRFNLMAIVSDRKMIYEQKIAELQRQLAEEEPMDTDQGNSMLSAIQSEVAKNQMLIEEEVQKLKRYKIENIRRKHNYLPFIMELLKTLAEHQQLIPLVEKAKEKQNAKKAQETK
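system = Proteasome-associated human UCH37 deubiquitinase | amount = 0.15 nM proteasome as dispensed | medium = pH 7.4 Tris-HCl (50 mM) with ovalbumin, ATP-MgCl2, DTT | incubation = 30 min preincubation with enzyme, 25 min cleavage at room temperature | detection = AMC fluorescence 355/460 nm | read-out basis = percent inhibition | controls = no-proteasome and no-compound wells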
T cruzi inh: inhibitors of intracellular T. cruzi growth, primary screen, luminescence, NIH3T3 host cells. T. cruzi beta-gal in NIH3T3, 90 h. inhibition, % (test concentration not listed). 300,000 tested, 1.4% active. AID 1885, 2009;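 active means mean inhibition across valid replicates above about 55%, limit read from the data; inconclusive means mean below that limit but half or more replicates reach it; inactive means mean below it, under half of replicates reach it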;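 further: signal also drops with host cell toxicity which is not excluded here; 0% = plate median of DMSO wells and 100% = zero luminescence signal; higher percent means less beta-gal luminescence so fewer parasites; stock transfer was 50 nL into about 50 µL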
LANA-H2B inh: blockers of LANA interaction with H2A/H2B – biochemical, FP readout, HTS, primary screen; cell-free LANA-H2A/H2B peptide, fluorescence polarization; inhibition, % (concentration not given with the values); 320,000 tested, 0.6% active; in the data active means inhibition mostly above about 10%, no sharp cut-off; inactive means mostly below about 6.7%;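 further: stock transfer was 7.5 nL into about 10 µL; 0% = median of vehicle wells and 100% = median of positive control wells; one replicate is shown; the record names a cut of 25% in any replicate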
RanGTP-Impb inh: inhibitors of RanGTP-importin-beta interaction, primary screen, biochemical, FRET, CFP-Ran, YFP-importin-beta, homogeneous; Ran GTPase (GTP-bound) - importin-beta complex; cell-free CFP-Ran/YFP-importin-beta FRET ratio; inhibition, % (test concentration not listed); 300,000 tested, 1.1% active;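 active means most replicates above 15%; inconclusive means exactly half above 15%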;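 further: 0% = DMSO wells and 100% = Ran loaded with GDP instead of GTP; wells of about 40 µL received 100 nL stock; the first replicate is given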
Calb FLC: C. albicans growth inhibition with fluconazole, primary screen, CaCi-2 strain, Alamar Blue fluorescence; growth inhibition, % (concentration not given with the values); C. albicans CaCi-2 (fluconazole-resistant clinical isolate) + fluconazole, 48 h; 300,000 tested, 0.57% active;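 active means most replicates above 75%; inconclusive means exactly half above 75%; inactive means most below 75%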;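 further: all wells also contain fluconazole at 8 µg/ml as a sub-toxic cotreatment; 0% = median of DMSO wells and 100% = median of geldanamycin control wells; wells of about 8 µL received 7.5 nL stock; the first replicate is given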
* hit, by the source's call; i = inactive; ? = inconclusive; nt = not tested or not shown.

Compound | Beta2AR agonist | Beta cell apopt | A1 inh | UCH37 DUB inh | T cruzi inh | LANA-H2B inh | RanGTP-Impb inh | Calb FLC
NS(=O)(=O)c1ccc(CNC(=O)CSc2ccccc2)cc1 | 3 | -11 | -0.4 | -0.7 | -1 | 2.7 | -2.0 | -4
CCCCN(CCCC)C(=O)c1nsnc1-c1ccccc1O | 1 | -3 | -0.7 | 0.5 | -1 | 3.4 | -3.6 | 26
CCOC(=O)C1(CC2CCCCO2)CCN(C(=O)Nc2ccc(SC)cc2)CC1 (stereo unspecified) | -4 | 6 | 0.5 | -0.7 | 16 | 1.1 | -4.3 | -14
CCOC(=O)C(=Cc1ccc(-n2cncn2)cc1)C(=O)OCC | 5 | -46 | 0.0 | 1.3 | -5 | 0.5 | 2.3 | 29
COc1ccc(C2(C(=O)Nc3ccc(C(=O)O)cc3)CCOCC2)cc1 | 6 | 0 | 0.4 | 3.5 | -6 | 1.9 | 9.6 | 1
O=C(COc1cccnc1[N+](=O)[O-])Nc1cccc2ccccc12 | -1 | -1 | 0.3 | 4.0 | nt | nt | nt | nt
Cc1cc(=O)n2[nH]c(SCc3ccc(Cl)cc3)nc2n1 | 2 | -2 | -3.6 | 4.0 | -4 | 2.1 | 2.4 | -5
NS(=O)(=O)c1ccc(NC(=O)Nc2cccc(Cl)c2)cc1 | 4 | 4 | -0.6 | 4.8 | -4 | -1.3 | -3.7 | -25
CN1CCN(C(=O)CCN2C(=O)/C(=C/c3cccc(Br)c3)SC2=S)CC1 | 2 | -35 | -1.1 | 7.0 | -1 | 4.0 | -4.6 | -24
Cc1cc(S(=O)(=O)N2CCN(Cc3ccccc3)CC2)c(C)s1 | 10 | 2 | 0.5 | 2.1 | 27 | 1.3 | 5.9 | 6
O=C(CSc1nc(C2CCCCC2)nc2ccccc12)NCc1ccc2c(c1)OCO2 | -16 | 0 | 0.3 | 2.5 | 23 | 6.1 | nt | 13
Cc1ccc(OCCCC(=O)N2CCOCC2)c(C)c1 | 1 | -7 | -0.1 | 1.1 | -13 | 0.7 | 6.7 | 10
CCOC(=O)c1c(C)oc2ccc(OS(C)(=O)=O)cc12 | 2 | -5 | -1.9 | 2.7 | 2 | 1.7 | -0.4 | 32
CCSc1nnc(N2C(=O)CC(c3ccsc3)C3=C2CC(C)(C)CC3=O)s1 (stereo unspecified) | -4 | -1 | -0.5 | 3.3 | 2 | 1.7 | 6.0 | -34
CC(=O)N(CCc1ccccc1)Cc1cc2cc(C)ccc2[nH]c1=O | -5 | -7 | -0.1 | -9.5 | 12 | 1.2 | -2.6 | 3
O=C(NCc1ccccc1Cl)c1cnccc1C(F)(F)F | 4 | -1 | 0.1 | 1.2 | -17 | -2.3 | 1.9 | -1
COc1ccc(-c2cc(=O)oc3c(C)c(O)ccc23)cc1 | 7 | -8 | 0.6 | -39 | -24 | -1.6 | -2.1 | -2
CC(C)=C1C(=O)NN(c2ccc(C)c(Cl)c2)C1=O | 5 | -5 | 0.1 | -1.6 | 6 | -2.6 | -13 | -14
Cc1ccccc1-c1nc(CS(=O)(=O)CC(=O)N2CCN(C)CC2)c(C)o1 | -4 | -6 | 0.5 | 4.1 | -6 | 0.0 | -2.7 | -5
COc1ccc(Cl)cc1NS(=O)(=O)c1cc(Br)cnc1N | 8 | 5 | 0.3 | 3.2 | 9 | 1.3 | ? | -4

4 compounds from above, sorted by the value under LANA-H2B inh, falling.
Structure | Beta2AR agonist | A1 inh | UCH37 DUB inh | LANA-H2B inh | RanGTP-Impb inh
O=C(CSc1nc(C2CCCCC2)nc2ccccc12)NCc1ccc2c(c1)OCO2 | -16 | 0.3 | 2.5 | 6.1 | nt
COc1ccc(Cl)cc1NS(=O)(=O)c1cc(Br)cnc1N | 8 | 0.3 | 3.2 | 1.3 | ?
COc1ccc(-c2cc(=O)oc3c(C)c(O)ccc23)cc1 | 7 | 0.6 | -39 | -1.6 | -2.1
CC(C)=C1C(=O)NN(c2ccc(C)c(Cl)c2)C1=O | 5 | 0.1 | -1.6 | -2.6 | -13

Next compounds.
Compound | Beta2AR agonist | Beta cell apopt | A1 inh | UCH37 DUB inh | T cruzi inh | LANA-H2B inh | RanGTP-Impb inh | Calb FLC
CC(=O)Nc1ccc(S(=O)(=O)Nc2nc3nc(-c4ccccc4)cc(-c4ccccc4)n3n2)cc1 | -10 | -2 | -0.1 | i | -2 | -4.9 | ? | 1
CCC(=O)Nc1cccc(NC(=O)CSc2nnnn2C2CCCC2)c1 | -3 | 0 | 0.2 | 2.7 | -19 | -2.0 | -7.2 | -5
O=[N+]([O-])c1cccc(CSc2cccc[n+]2[O-])c1 | -2 | -3 | -0.7 | -0.6 | -14 | 1.0 | -1.3 | 7
CCOc1cc(/C=C(\C#N)C(=O)Nc2cccc(C(=O)O)c2)ccc1OCc1ccc(Br)cc1 | 9 | 17 | 0.8 | -2.4 | -9 | 3.7 | -2.4 | 7
C/C(=N\NC(=O)COc1ccc(C#N)cc1)c1ccc(N2CCOCC2)cc1 | 8 | 1 | 1.4 | nt | -15 | 7.8 | 3.3 | -34
O=C1CN(C(=O)CC2C(=O)NCCN2Cc2ccccc2C(F)(F)F)CCN1 (stereo unspecified) | -1 | -5 | 0.4 | -4.8 | -14 | 2.2 | -1.7 | 1
Cc1[nH]c(=O)[nH]c(=O)c1S(=O)(=O)N1CCCC(C(=O)N2CCN(c3cccc(C(F)(F)F)c3)CC2)C1 (stereo unspecified) | 6 | -2 | 0.6 | 2.9 | -5 | 0.0 | 4.5 | 10
CCOC(=O)/C(=C/c1c2ccccc2cc2ccccc12)NC(=O)c1ccccc1 | -1 | 11 | -0.2 | -1.7 | 7 | -1.8 | 5.4 | -2
COc1ccc2nc3oc(C(=O)Nc4ccc(OC)c(OC)c4)cc3cc2c1 | 22 | 3 | -0.2 | -32 | 3 | 1.9 | -2.2 | -15
CCOc1ccc(C(=O)c2ccncc2)cc1 | 1 | nt | -0.2 | -0.1 | -9 | 1.8 | 0.2 | 0
Fc1ccc(-c2nnc(N3CCOCC3)c3ccccc23)cc1F | -17 | nt | -0.6 | 5.4 | 26 | 1.0 | 0.5 | 17
Cc1nn(C)c(C)c1NC(=O)CC12CC3CC(CC(C3)C1)C2 | 9 | 3 | -0.8 | 3.0 | -12 | 2.2 | nt | 9
CCc1ccccc1NC(=O)C1CCCN(S(=O)(=O)c2ccc3c(c2)CC(C)N3C(C)=O)C1 (stereo unspecified) | -2 | 1 | 0.0 | 3.9 | 18 | 3.1 | ? | -11
NC(=O)c1ccc(NC(=O)CN2C(=O)NC(c3ccccc3)(c3ccccc3)C2=O)cc1 | 1 | -8 | 0.0 | -1.1 | -10 | -0.5 | 2.0 | 2
OCCNCc1ccc(OCc2ccc(Cl)cc2Cl)cc1 | 21 | 14 | 0.1 | 1.4 | 31 | -8.0 | 0.2 | -25
COc1cccc(C(=O)N2CCN(C3CCN(Cc4ccccc4)CC3)CC2)c1OC | -6 | -8 | -0.1 | 5.2 | -6 | 0.8 | -0.6 | -3
CC(OC(=O)/C(C#N)=C/c1ccc(N(C)C)cc1)C(=O)N(C)c1ccccc1 (stereo unspecified) | 22 | 6 | 0.4 | nt | 6 | -3.5 | 92* | -16
COC(=O)[C@H](Cc1ccccc1)NC(=O)O[C@H]1C(=O)c2ccc(OC)cc2O[C@@H]1c1ccc2c(c1)OCO2 | nt | 0 | 1.4 | -0.6 | -3 | 4.4 | 4.7 | 8
CCOc1ccc(NC(=O)CC2C(=O)N(c3cccc(OC)c3)C(=O)N2CCOC)cc1 (stereo unspecified) | -4 | 3 | 0.1 | -0.8 | -1 | 2.4 | -2.0 | 0
COc1ccc(C2C(C#N)=C(N)Oc3n[nH]c(-c4ccccn4)c32)c(OC)c1OC (stereo unspecified) | -7 | -3 | ? | -6.1 | -28 | -7.6 | 2.2 | -10
CCc1ccc(NC(=O)CSc2ccc(-c3cccnc3)nn2)cc1 | -12 | -3 | -0.5 | 3.2 | 1 | 3.6 | 5.8 | 0
CCOC(=O)CC1C(=O)NCCN1C(=O)c1ccc(Cl)cc1Cl (stereo unspecified) | 4 | nt | 1.2 | -3.9 | -9 | 14 | -0.9 | 3
Cc1occc1C(=O)NNC(=O)c1nn(C)c(=O)c2ccccc12 | 1 | -8 | 0.1 | 1.1 | 6 | -1.4 | -0.7 | 6
COc1cc(O)c(C(CC(=O)N2CCN(c3ccccc3)CC2)c2cc(OC)c(OC)c(OC)c2)c(OC)c1 (stereo unspecified) | -7 | -3 | -0.1 | 2.2 | -15 | 3.0 | 1.1 | 3
O=C(N/N=C/C=C\c1ccco1)c1cccnc1 | -6 | -13 | 0.2 | nt | -11 | 4.9 | 2.1 | -2
CCCc1cc(=O)oc2cc(C)cc(OCC(=O)O)c12 | -2 | -5 | -0.2 | -171 | 6 | -1.5 | -0.2 | 6
COC(=O)[C@@H]1C[C@H]1[C@@H](NC(=O)c1cc(C)on1)c1ccccc1 | -2 | -2 | 0.7 | 4.0 | 1 | 1.5 | 0.8 | -3
COc1ccccc1NC(=S)NNC(=O)c1nn(C)c(C)c1Br | 2 | -10 | -1.5 | 0.3 | 2 | 2.9 | 2.0 | -9
CSc1ccc(-c2ccco2)nn1 | -8 | -2 | -1.1 | 2.9 | nt | -3.0 | nt | -16
CCCCc1nc(SCC(=O)N2CCCC2)c2c(=O)n(C)c(=O)n(C)c2n1 | -12 | 4 | -1.6 | 1.2 | 15 | 2.0 | -1.4 | 25

An excerpt of these results, as labelled records.
> CCCc1cc(=O)oc2cc(C)cc(OCC(=O)O)c12
  Beta2AR agonist: -2; Beta cell apopt: -5; A1 inh: -0.2; UCH37 DUB inh: -171; T cruzi inh: 6; LANA-H2B inh: -1.5; RanGTP-Impb inh: -0.2; Calb FLC: 6
> COC(=O)[C@@H]1C[C@H]1[C@@H](NC(=O)c1cc(C)on1)c1ccccc1
  Beta2AR agonist: -2; Beta cell apopt: -2; A1 inh: 0.7; UCH37 DUB inh: 4.0; T cruzi inh: 1; LANA-H2B inh: 1.5; RanGTP-Impb inh: 0.8; Calb FLC: -3

Other entries.
Compound | Beta2AR agonist | Beta cell apopt | A1 inh | UCH37 DUB inh | T cruzi inh | LANA-H2B inh | RanGTP-Impb inh | Calb FLC
COc1cc(OC)cc(C(=O)NNC(=O)C2CSC3(C)CCC(=O)N23)c1 (stereo unspecified) | 4 | 0 | -0.6 | 1.8 | nt | nt | nt | nt
NC(=O)c1cccnc1Oc1cccc(Cl)c1 | -1 | -2 | 1.3 | 2.3 | -5 | -1.2 | 0.8 | 23
COC(=O)CCC(=O)OC1(C)C(=O)C=C2C=C(C3CC3)OC=C2C1=O (stereo unspecified) | nt | 5 | 0.6 | nt | 5 | 6.0 | -7.1 | 15
Cc1ccc(NC(=O)C(C)Sc2nc3nc(C)cc(C)n3n2)cc1 (stereo unspecified) | 2 | -4 | 0.1 | 1.9 | nt | 0.0 | nt | nt
N/C(=N\OCC(=O)Nc1ccc(F)c(Cl)c1)c1ccccc1 | 2 | -5 | 1.4 | 1.1 | nt | -1.7 | nt | nt

Assay outcomes from PubChem BioAssay.
